# Compound activity: PubChem BioAssay, National Center for Advancing Translational Sciences (NCATS)
# VACV Venus inh – inhibitors of vaccinia virus (Venus reporter) | Potency, µM (top dose mostly 36.5 µM), inactives show at the top dose activity change, negative = inhibition, most hits filed as inhibitors | actives 0.46% (n = 330,000) | Vaccinia virus Venus reporter expression, fluorescence; active means well fitted inhibition curve with a large enough effect; inconclusive means small, poorly fitted or top-dose-only effect; inactive means no such curve, though single readings can be large or run the other way; tested in A549 cells; also: nearly all actives have a fitted effect of over 30% in size; inactives centre near -10
# Vaccinia mCherry – inhibitors of vaccinia virus infection (mCherry reporter signal); actives 0.63% (n = 310,000); Vaccinia virus mCherry reporter infection, fluorescence; about a quarter of the inactives have no number; Potency, µM (titrated, usually from 36.5 µM), without a hit: top-dose activity change, negative = inhibition, usual class: inhibitors; active = well fitted inhibition curve with a large enough effect; inconclusive = small, poorly fitted or top-dose-only effect; inactive = no such curve, though single readings can be large or run the other way; tested in A549 cells; also: nearly all actives have a fitted effect of over 35% in size; inactives centre near -10
# Active calls of the source: *; i = inactive; ? = inconclusive; nt = not tested or not shown; & = joins results of further samples; [ ] = dose if it differs, or a comment. % is scaled to controls: 0 for no effect and ±100 for the full control effect; potency is read from the fitted curve at half-maximal effect.
SMILES,VACV Venus inh,Vaccinia mCherry
COc1ccccc1-c1cc(C(=O)Nc2sc3c(c2C#N)CCC(C)C3)c2ccccc2n1 (stereo unspecified),-11%,-10%
CCCOc1cc(C)c(S(=O)(=O)N2CCN(C)CC2)cc1C,-16%,nt
CCCCN(C(=O)c1c(CC)noc1C)c1c(N)n(CCCC)c(=O)[nH]c1=O,-2%,-24%
CCOC(=O)C(=Cc1c[nH]c2ccc(S(=O)(=O)N(C)C)cc12)C(=O)OCC,-17%,-15%
O=C(Nc1nccs1)c1ncc(Cl)c(Cl)c1Cl,-12%,?
CSc1ccc(CN2CCN(C(=O)COc3ccc(C)cc3)CC2)cc1,-5%&-23%,-15%&-21%
CC(=O)OC1CCC23C(=O)OC45CCC(C6=CC(=O)OC6)C4(C)CCC2C5CCC3(O)C1 (stereo unspecified),1.3µM*,1.8µM*
OCC[C@H]1C[C@H](O)[C@@H](O)[C@]2(CCc3ccccc3CO2)O1,-19%,-8%
Cc1ccc(-c2noc(CN(C3CCCCC3)S(=O)(=O)c3ccc(C)cc3)n2)cc1,-24%,-17%
Cc1ccc(-n2nc3c(=O)n(CCCC(=O)NCc4ccccc4F)nc(C)c3c2C)cc1,-23%,?
CCc1ccc(N(C(=O)CNC(=O)c2ccco2)C(C(=O)NCC2CCCO2)c2ccccc2)cc1 (stereo unspecified),2%,-14%
O=C(NC(Cc1ccccc1)C(=O)O)/C(=C/c1ccc(Br)cc1)NC(=O)c1ccc(Br)o1 (stereo unspecified),-4%,i
NC1=NC[C@H](Cc2ccccc2)N1CCCCC1CCCCC1,?,?
COc1ccc(CNC(=O)c2ccc(Sc3ccc(Cl)cc3)c(NC(C)=O)c2)c(OC)c1,-16%,-14%
COc1ccc(-n2c(C)nnc2SCc2nc(-c3ccc(OC)c(OC)c3)no2)cc1,4%,-12%
COc1ccc(S(=O)(=O)N2CCCOC2CNC(=O)C(=O)NCCc2ccco2)cc1C (stereo unspecified),-14%,-10%
Cc1sc2ncnc(SCC(=O)N3CCC(c4noc5ccc(F)cc45)CC3)c2c1C,-1%,-7%
Cc1nn(Cc2ccc(Cl)cc2)c(C)c1NC(=O)c1cc(C(C)C)on1,-2%,-27%
CC(C)CCNc1ncnc2c1nnn2Cc1ccccc1Cl,-7%,-12%
COc1ccc(C2Nc3ccccc3C(=O)N2c2ccc(F)cc2)cc1Cn1nnc2ccccc21 (stereo unspecified),-4%,-11%
CCc1ccc(NC(=O)C2CCCN2S(=O)(=O)c2cccc3nsnc23)cc1 (stereo unspecified),-12%,-17%
CCOC(=O)c1cc(S(=O)(=O)NCc2ccc(F)cc2)[nH]n1,-4%,-12%
COC(=O)[C@@]12C[C@@H](CC(=O)N3CCOCC3)C(=O)N(Cc3ccc4c(c3)OCO4)C1=CCC(C)(C)C2,-7%,-13%
CN(CC1CCN(CCc2cccc(C(F)(F)F)c2)CC1)C(=O)c1ccc(F)cc1,-11%,-7%
CCOc1ccc(OCC(=O)OCC(=O)N(CC(C)C)c2c(N)n(Cc3ccccc3)c(=O)[nH]c2=O)cc1,-16%,i

# The closing 3 records of the section above are carried over, then new ones follow.
SMILES,VACV Venus inh,Vaccinia mCherry
COC(=O)[C@@]12C[C@@H](CC(=O)N3CCOCC3)C(=O)N(Cc3ccc4c(c3)OCO4)C1=CCC(C)(C)C2,-7%,-13%
CN(CC1CCN(CCc2cccc(C(F)(F)F)c2)CC1)C(=O)c1ccc(F)cc1,-11%,-7%
CCOc1ccc(OCC(=O)OCC(=O)N(CC(C)C)c2c(N)n(Cc3ccccc3)c(=O)[nH]c2=O)cc1,-16%,i
C=CCN(C(=O)CCC(=O)Nc1cc(C)on1)C(C(=O)NC1CCCC1)c1ccc(Cl)cc1 (stereo unspecified),13%,6%
Cc1ccc(C(=O)N/C(=C\c2ccccc2)C(=O)NCCCn2ccnc2)cc1,-3%,i
CC(NCc1ccc2c(c1)OCO2)C(=O)NC1CCCCC1 (stereo unspecified),-7%,-11%
N#Cc1cccc(CN2CCC(=O)N(CCO)CC2)c1,-10%,i
C/C(=N\NC(=O)c1cccnc1)c1c(O)cc(C)oc1=O,-6%,-10%
CC1(C)CC(N2CCC(=O)N(C3CC(C)(C)NC(C)(C)C3)C2)CC(C)(C)N1,1%,nt
C=CC(C1=CC(=O)C(OC)=CC1=O)c1ccccc1 (stereo unspecified),-14%,i
Cc1ccc2nc(Cl)c(/C=N/NC(=O)[C@H]3C[C@@H]3c3ccccc3)cc2c1,7%,-14%
Cc1cc(C(=O)N2C(C)CCCC2C)no1 (stereo unspecified),-6%,1%
CCCN(CCC)CCCNC(=O)c1nn(-c2cccc(OC)c2)c(=O)c2ccccc12,-1%,-7%
COCCN1C(=O)C(=O)/C(=C(/O)c2cccc(S(=O)(=O)N(C)C)c2)C12C(=O)N(C)c1ccccc12 (stereo unspecified),10%,nt
CC(C)CCNC(=O)c1ccccc1SCC(=O)NC1CCCCCCC1,-1%,-16%
Cc1nn(C)c2c1c(-c1ccccc1)cc(=O)n2CC(=O)NC(C)(C)C,-7%,-4%
COc1ccc(NC(=O)c2sc3nc[nH]c(=O)c3c2C)cc1,-4%[7.34 µM],-11%[7.34 µM]
CCCCCCN1C[C@H](n2cc(C3CC3)nn2)[C@@H](O)C[C@@H]1c1ccc(OC)cc1,-23%,i
COc1cccc(CNS(=O)(=O)c2c(C)nc3sccn3c2=O)c1,-1%,1%
CC(=O)n1cc([C@H]2C=C(C(=O)N3CCN(Cc4ccccc4)CC3)O[C@@H](OCCCCO)C2)c2ccccc21,-20%,-17%
CSc1ccccc1OCc1cc(C(=O)NC(C)CCn2cccn2)no1 (stereo unspecified),-21%,-1%
N#Cc1cc([N+](=O)[O-])ccc1N1CCN(c2ccccc2O)CC1,-11%,-9%
COc1cc(/C=N/NC(=O)CCN2CCN(C)CC2)cc2c1OCO2,-2%,i
Cc1[nH]nc(-c2ccc(O)cc2O)c1-c1nc2ccccc2s1,-20%,-27%
O=C(Cn1cnc2c(nnn2Cc2ccc(F)cc2)c1=O)NCc1ccc2c(c1)OCO2,-8%,-12%
Cc1cc(S(=O)(=O)N2CCOCC2)ccc1OCC(=O)Nc1cccc(F)c1,-7%,-11%
CCOc1ccc(-n2c(SCC(=O)N3CCCC3)nc3c([nH]c4ccccc43)c2=O)cc1,-16%,-19%
c1cncc(-c2nc(N3CCOCC3)c3c4c(sc3n2)CCC4)c1,-14%,-6%

# New compounds follow
SMILES,VACV Venus inh,Vaccinia mCherry
CCOc1ccc(CC(=O)Nc2ccc3c(c2)N(C)C(=O)c2ccccc2S3)cc1OCC,?,?
COc1ccc(CCNC(=O)c2cc3cccc4c3n2CC(C)S4)c(OC)c1OC (stereo unspecified),-15%,-19%
CCOC(=O)C1(CCOc2ccccc2)CCN(CC=C(C)C)CC1,1%,-27%
Cc1ccc2c(c1)C(c1ccc(F)cc1)N(C(=O)c1ccc(S(=O)(=O)N3CCCCC3)cc1)CC(=O)N2 (stereo unspecified),-28%,?
Cc1ccc(O)c(NC(=O)c2ccc(Br)c(S(=O)(=O)N3CCCCC3)c2)c1,?,-29%
CCc1cccc(NS(=O)(=O)c2c(C)nc3sc(CC)nn3c2=O)c1,-14%&-21%,?
Clc1ccc(CNc2ncnc3[nH]ncc23)cc1Cl,10µM*,11µM*
O=C(Cn1nnc2c(cnn2-c2ccc(F)cc2)c1=O)c1ccccc1F,12%,4%
CCOC(=O)C1CCN(c2nc(N)c3c(N)nc(SCC(=O)O)cc3c2C#N)CC1,-2%,-5%
CC(C)Oc1ccc(C(=O)Nc2ccc(NC(=O)c3ccco3)c(Cl)c2)cc1,-15%,nt
COc1cc(OC)c(C2SCCS2)c(OC)c1,-18%,-2%
CCCOC(=S)Nc1ccccc1,-6%,nt
Clc1ccc(N2CCN(c3cnc4ccccc4n3)CC2)cc1,-21%,-3%
CC(=O)C1=C(C)NC2=C(C(=O)CC(C)(C)C2)C1C (stereo unspecified),-18%,-1%
O=C(OCc1nnc(-c2ccccc2)o1)c1cccc(-n2cnnn2)c1,-2%,-19%
O=C(NCCN1CCN(c2cccc(Cl)c2)CC1)c1cccn2c(=O)c3ccccc3nc12,1%,3%
C=CCNC(=S)NNC(=O)COc1c(Cl)cc(Cl)cc1Cl,-12%,-12%
Cc1ccc(C(NC(=O)NC(C)c2ccccc2)C(Cl)(Cl)Cl)cc1F (stereo unspecified),?,22µM*
CCOC(=O)N1CCN(C(=O)Nc2ccc3nccnc3c2)CC1,-3%,i
O=C(O)c1nn(CC(=O)N2CCCCCC2)c(=O)c2ccccc12,-4%,i
CCOC(=O)N(C)c1c(CC)nc2c(OCc3ccccc3OC)cccn12,4%,15%
COc1cccc(C2C=C(c3ccc(OC)cc3OC)Nc3nnnn32)c1 (stereo unspecified),-17%,i
CC(=O)Nc1ccc(NC(=O)CSC2=NCCS2)cc1,-5%,-3%
O=C(CCNC(=O)c1ccc(Cl)cc1)NCc1ccccc1Cl,-13%,-14%
C=CCNC(=O)CN(c1cc(Cl)ccc1OC)S(=O)(=O)c1ccc(C)c([N+](=O)[O-])c1,-10%,-24%

# Following part:
SMILES,VACV Venus inh,Vaccinia mCherry
COc1ccc(-n2nc(C(=O)NCCc3ccc(Cl)cc3)c3c4ccccc4n(C)c3c2=O)cc1,-9%,-11%
CN=C1N(C)C[C@@H]2[C@@H]3C(=O)N(C)C(=O)[C@@H]3[C@](C)(C(=O)OC)N12,-12%,-3%
Cc1ccc2nc(-c3ccc(NC(=O)c4ccccc4S(C)(=O)=O)cc3)sc2c1,-17%,-14%
Cc1ccc(NC(=O)N2CCSc3ccccc32)cc1,-10%,4%
COc1ccc(CN(C)C(=O)Cn2cc(C)c(=O)[nH]c2=O)cc1OC,-3%,-27%
Cc1cccc(N2CCN(C(=O)Cn3ncc4c3-c3cc(C)ccc3OC4)CC2C)c1 (stereo unspecified),-3%,-16%
O=C(O)C(CCc1ccccc1)N1C(=O)c2ccccc2C1=O (stereo unspecified),-11%,-11%
Cn1nccc1C(=O)NCc1ccc2c(c1)CCN2C(=O)c1ccc(Cl)cc1,-13%,-12%
Cc1cccc(C(=O)OCc2cc(=O)n3nc(C4CCCCC4)sc3n2)c1,-13%,5%
COCCNC(=O)/C(C#N)=C/c1cccc(/C=C(\C#N)C(=O)NCCOC)c1,1%,-6%
O=C1CCCC/C1=C\Nc1ccc(Cl)cn1,-9%,-4%
O=C(O)/C=C/c1ccc(S(=O)(=O)Nc2cccnc2)cc1,-8%,-22%

# In the list so far, these have a Cl atom.
SMILES,VACV Venus inh,Vaccinia mCherry
O=C(Nc1nccs1)c1ncc(Cl)c(Cl)c1Cl,-12%,?
COc1ccc(CNC(=O)c2ccc(Sc3ccc(Cl)cc3)c(NC(C)=O)c2)c(OC)c1,-16%,-14%
Cc1nn(Cc2ccc(Cl)cc2)c(C)c1NC(=O)c1cc(C(C)C)on1,-2%,-27%
CC(C)CCNc1ncnc2c1nnn2Cc1ccccc1Cl,-7%,-12%
C=CCN(C(=O)CCC(=O)Nc1cc(C)on1)C(C(=O)NC1CCCC1)c1ccc(Cl)cc1 (stereo unspecified),13%,6%
Cc1ccc2nc(Cl)c(/C=N/NC(=O)[C@H]3C[C@@H]3c3ccccc3)cc2c1,7%,-14%
Clc1ccc(CNc2ncnc3[nH]ncc23)cc1Cl,10µM*,11µM*
CC(C)Oc1ccc(C(=O)Nc2ccc(NC(=O)c3ccco3)c(Cl)c2)cc1,-15%,nt
Clc1ccc(N2CCN(c3cnc4ccccc4n3)CC2)cc1,-21%,-3%
O=C(NCCN1CCN(c2cccc(Cl)c2)CC1)c1cccn2c(=O)c3ccccc3nc12,1%,3%
C=CCNC(=S)NNC(=O)COc1c(Cl)cc(Cl)cc1Cl,-12%,-12%
Cc1ccc(C(NC(=O)NC(C)c2ccccc2)C(Cl)(Cl)Cl)cc1F (stereo unspecified),?,22µM*
O=C(CCNC(=O)c1ccc(Cl)cc1)NCc1ccccc1Cl,-13%,-14%
C=CCNC(=O)CN(c1cc(Cl)ccc1OC)S(=O)(=O)c1ccc(C)c([N+](=O)[O-])c1,-10%,-24%
COc1ccc(-n2nc(C(=O)NCCc3ccc(Cl)cc3)c3c4ccccc4n(C)c3c2=O)cc1,-9%,-11%
Cn1nccc1C(=O)NCc1ccc2c(c1)CCN2C(=O)c1ccc(Cl)cc1,-13%,-12%
O=C1CCCC/C1=C\Nc1ccc(Cl)cn1,-9%,-4%
